KCNQ2 pot: enhances the rat KCNQ2 potassium channel; CHO-K1 KCNQ2, FluxOR thallium flux fluorescence; stronger effect = higher value; AID 2239; O88943; 310,000 tested, 0.54% active; B-score at 10 µM;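 active = fluorescence ratio B-score at least 3 SD of library B-scores, with initial fluorescence B-score within 3 SD, cut at about 5.3 in these data; same plate scores as AID 2156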;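 note: B-score of peak minus minimum over baseline fluorescence ratio after K+ and Tl+ stimulus; positive B-score means potentiation of KCNQ2 with more thallium influx and brighter signal; only the inactives scoring about 0 or higher are listed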
Target sequence (O88943 whole entry, looked up): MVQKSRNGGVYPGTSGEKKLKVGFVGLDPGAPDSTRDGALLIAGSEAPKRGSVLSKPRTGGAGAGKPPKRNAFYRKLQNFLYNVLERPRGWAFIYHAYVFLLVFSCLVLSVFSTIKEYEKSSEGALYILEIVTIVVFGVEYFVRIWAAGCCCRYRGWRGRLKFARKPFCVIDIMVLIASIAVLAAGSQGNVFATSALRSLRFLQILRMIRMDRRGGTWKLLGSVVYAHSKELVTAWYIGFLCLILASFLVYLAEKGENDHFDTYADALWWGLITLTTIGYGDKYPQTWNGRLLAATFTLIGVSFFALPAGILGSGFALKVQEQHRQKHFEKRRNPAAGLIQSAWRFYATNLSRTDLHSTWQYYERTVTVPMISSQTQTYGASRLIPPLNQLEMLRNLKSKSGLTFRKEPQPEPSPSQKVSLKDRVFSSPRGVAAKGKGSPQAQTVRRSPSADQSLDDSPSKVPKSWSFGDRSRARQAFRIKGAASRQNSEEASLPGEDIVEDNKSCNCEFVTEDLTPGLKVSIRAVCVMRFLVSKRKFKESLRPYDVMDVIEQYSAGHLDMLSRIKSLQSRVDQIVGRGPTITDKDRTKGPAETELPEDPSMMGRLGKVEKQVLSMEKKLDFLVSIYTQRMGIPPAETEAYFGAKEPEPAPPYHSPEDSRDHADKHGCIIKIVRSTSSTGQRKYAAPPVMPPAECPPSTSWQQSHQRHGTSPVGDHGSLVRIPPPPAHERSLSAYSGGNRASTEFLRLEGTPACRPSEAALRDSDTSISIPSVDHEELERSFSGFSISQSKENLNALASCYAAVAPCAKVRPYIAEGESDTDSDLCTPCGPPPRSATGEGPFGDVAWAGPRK
KCNQ2 pot baseline: recorded beside KCNQ2 pot, whose call it bears; B-score; compound at 10 µM; measured here: initial fluorescence intensity artifact check;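 brightness before thallium and not channel activity; 0 = typical well and far values either way flag optical interference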
The depositor's hits bear a star. An excerpt; the hit share may differ from the screen's.

KCNQ2 pot	KCNQ2 pot baseline	molecule
0.99	0.12	O=C(Cn1cnc2cc([N+](=O)[O-])ccc2c1=O)NCc1ccccc1
1.2	0.98	O=C(CCNC(=O)c1ccc(Br)cc1)NCc1ccco1
2	-0.09	CC(C)c1nn2c(=O)cc(CSc3ccccc3NC(=O)c3ccccc3F)nc2s1
0.03	-0.04	CN(C)CCCNC(=O)N1c2ccccc2Sc2ccccc21
0.29	-0.05	O=C(NNCC(O)COc1ccccc1)c1ccccc1 (configuration not stated)
0.48	-0.03	Cc1nnc(NC(=O)Nc2cccc(Cl)c2)s1
0.61	1.2	O=C(NC1CCCCC1)NC1CC2CCCC(C1)N2C1CCCC1 (configuration not stated)
0.56	-0.04	CCc1nnc(NC(=O)CN2CCN(CC)CC2)s1
0.79	-0.94	Cn1ccnc1CC(O)(c1ccccc1)c1ccccc1
0.02	-1.4	O=C(NC(Cc1ccccc1)C(=O)O)OCC1c2ccccc2-c2ccccc21 (configuration not stated)
1.3	-1.3	Cc1cccc(Cl)c1NC(=O)N1CCCN(c2ncccc2[N+](=O)[O-])CC1
0.15	-0.89	Cc1ccc(C)c(NC(=O)C(c2ccccc2)N2CCOCC2)c1 (configuration not stated)
1.2	-0.38	CC(C)NS(=O)(=O)c1ccc(OCC(=O)N2CCN(c3ccccc3)CC2)cc1
0.94	0.88	Cc1ccc(N=Nc2c(C)[nH]n(-c3ccccc3)c2=O)cc1
0.14	-1.8	CCCN1C2CCCC1CC(NC(=O)c1ccc(OC)cc1)C2 (configuration not stated)
1.8	-0.31	Cc1ccc(/C=N/NC(=O)CSc2nnc(-c3ccccc3)n2-c2ccc(Cl)cc2)o1
0.07	0.03	CCOC(=O)CSc1n[nH]c(-c2ccco2)n1
1.3	-0.04	O=C(CN1C(=O)COc2ccccc21)N1CCN(c2ccccc2F)CC1
0.79	-0.29	CC(C(=O)Nc1cccnc1)n1cc([N+](=O)[O-])cn1 (configuration not stated)
0.18	0.59	COc1ccc(Br)cc1S(=O)(=O)n1c([N+](=O)[O-])cnc1C
0.41	-0.49	CCCCOc1ccc(CN2CCC(O)CC2)cc1
1.8	-2	CCN(CC)S(=O)(=O)c1ccccc1/C=N\O
0.71	0.5	COc1ccc(CC2NCCC3=CC(=O)CCC32)cc1O (configuration not stated)
1.8	-0.01	NC(=O)[C@@H]1CCCNc2c(F)cc([N+](=O)[O-])cc2C(=O)N[C@@H](CCC(=O)O)C(=O)N[C@@H](CO)C(=O)N1
1.1	0	COc1ccc(NC(=O)C(=O)c2cn(CC(=O)N3CCOCC3)c3ccccc23)cc1OC
0.27	1.1	CCOc1ccc(-c2noc(CCCC(=O)NC3CCCCC3)n2)cc1OC
0.02	0.04	CCn1c(SCC(=O)c2cc(C)ccc2C)nc2cc(S(=O)(=O)N3CCOCC3)ccc21
0.39	-0.5	COCC(C)NC(=O)CSc1nc(-c2ccccc2)c(-c2ccccc2)o1 (configuration not stated)
1.3	0.09	CCOC(=O)/C=C1\SCC(=O)N1CC(=O)NC(C)C
2.1	-1.9	Cc1cccc(NC(=S)N2CCN(Cc3ccccc3)CC2)c1C
0.91	-0.15	Nc1nncn1C(=O)CCCOc1ccccc1
0.49	-1	Cc1occc1-c1nnc(SCCNCCO)o1
3.1	-0.39	Cc1ccc(CNC(=O)/C=C/c2ccccc2Cl)cc1
3.1	-1.6	O=C(COc1ccccc1[N+](=O)[O-])NC1CC1
0.82	-0.07	NC(=O)Cc1ccc(C(=O)c2ccccc2F)s1
0.83	0.89	O=C(COC(=O)CC1CCCC1)Nc1cc2c(cc1Cl)C(=O)c1ccccc1C2=O
0.12	0.63	COc1cc(OC)cc(C(=O)Nc2cccc(-c3ccc4nncn4n3)c2)c1
3.4	0.63	Cc1ccc(C(=O)/C=C/NNC(=O)c2ccccc2O)cc1
1.3	-0.34	O=C(c1ccc(OCC2CCCO2)cc1)N1CCc2ccccc2C1 (configuration not stated)
0.16	0.81	Cc1ccc(/C=C2/N=C(c3ccccc3)NNC2=O)cc1
0.98	0.03	CCC(=O)Nc1cc(C(=O)OCC(=O)c2ccccc2)ccc1C
0.43	-0.53	COc1cc2cc(CN(C(=O)Nc3ccccc3)C3CCCC3)c(=O)[nH]c2cc1OC
0.48	0.14	COc1ccc(CCNC(=O)c2ccc(Br)cc2)cc1
0.03	-0.21	COc1cccc(C(C(=O)NC2CCCC2)N(C(=O)c2ccco2)c2ccccc2)c1OC (configuration not stated)
0.55	1.8	CCOc1nc(C)ccc1-c1noc(-c2ccncc2)n1
1.4	-0.03	O=C(NNc1ccccn1)C(=O)NNS(=O)(=O)c1ccc(Cl)cc1
0.28	-0.64	OC(CNCc1cccc(Cl)c1)c1ccccc1 (configuration not stated)
0.17	0.21	CC(=O)Nc1ccc(NC(=O)Cn2cnc3c(nnn3Cc3ccc(F)cc3)c2=O)cc1

Sorted by length of the SMILES (largest number first): 17 of the compounds above
KCNQ2 pot	KCNQ2 pot baseline	molecule
0.02	0.04	CCn1c(SCC(=O)c2cc(C)ccc2C)nc2cc(S(=O)(=O)N3CCOCC3)ccc21
0.17	0.21	CC(=O)Nc1ccc(NC(=O)Cn2cnc3c(nnn3Cc3ccc(F)cc3)c2=O)cc1
0.43	-0.53	COc1cc2cc(CN(C(=O)Nc3ccccc3)C3CCCC3)c(=O)[nH]c2cc1OC
0.83	0.89	O=C(COC(=O)CC1CCCC1)Nc1cc2c(cc1Cl)C(=O)c1ccccc1C2=O
0.12	0.63	COc1cc(OC)cc(C(=O)Nc2cccc(-c3ccc4nncn4n3)c2)c1
0.39	-0.5	COCC(C)NC(=O)CSc1nc(-c2ccccc2)c(-c2ccccc2)o1 (configuration not stated)
1.4	-0.03	O=C(NNc1ccccn1)C(=O)NNS(=O)(=O)c1ccc(Cl)cc1
0.98	0.03	CCC(=O)Nc1cc(C(=O)OCC(=O)c2ccccc2)ccc1C
1.3	-0.34	O=C(c1ccc(OCC2CCCO2)cc1)N1CCc2ccccc2C1 (configuration not stated)
3.4	0.63	Cc1ccc(C(=O)/C=C/NNC(=O)c2ccccc2O)cc1
0.16	0.81	Cc1ccc(/C=C2/N=C(c3ccccc3)NNC2=O)cc1
1.3	0.09	CCOC(=O)/C=C1\SCC(=O)N1CC(=O)NC(C)C
3.1	-1.6	O=C(COc1ccccc1[N+](=O)[O-])NC1CC1
0.48	0.14	COc1ccc(CCNC(=O)c2ccc(Br)cc2)cc1
0.82	-0.07	NC(=O)Cc1ccc(C(=O)c2ccccc2F)s1
0.28	-0.64	OC(CNCc1cccc(Cl)c1)c1ccccc1 (configuration not stated)
0.49	-1	Cc1occc1-c1nnc(SCCNCCO)o1

(listing goes on)
KCNQ2 pot	KCNQ2 pot baseline	molecule
1.6	-1.6	CCOC(=O)CCc1c(C)n[nH]c1C
0.02	-0.21	COc1cc(/C=N/n2cnn(Cc3ccccc3Cl)c2=S)cc(OC)c1OC
0.18	1.2	C=C(C)C1Cc2c(C)nn(-c3ccccn3)c2C1 (configuration not stated)
4.8	-0.03	CC(=O)C1=C(C)NC(SCC(=O)c2ccc(F)cc2)=C(C#N)C1c1ccco1 (configuration not stated)
2	-0.21	CC(C)C(=O)NNC(=O)c1csc(-c2cccs2)n1
0.78	-2.6	O=C(Nc1cccnc1)c1cccc(S(=O)(=O)N2CCOCC2)c1
0.37	1.1	CCOC(=O)c1nnn(-c2ccc([N+](=O)[O-])cc2)c1C
0.11	-0.12	CCNC(=O)c1ccc(OCC(=O)Nc2ccc(F)cc2)c(OC)c1
1.1	0.78	CNC(=O)c1csc(-c2ccccc2)n1
0.14	-0.01	CCOc1ccc(NC(=O)c2ccc(NC(=O)c3cn4c5c(c(N6CCN(C)CC6)c(F)cc5c3=O)OCC4C)cc2)cc1 (configuration not stated)
2.2	0.87	COc1ccccc1N1CCN(CCCNC(=O)Cn2ncc3c([nH]c4ccccc43)c2=O)CC1
0.19	0.98	CN1C(C(=O)NCc2ccco2)CC2Cn3c(nc4cc(Cl)c(Cl)cc43)C21 (configuration not stated)
0.65	-2.9	Cc1cc(N)n(-c2ccc(C(=O)O)cc2)n1
1	-0.23	Cc1cc(-n2c(=O)c(C#N)cc3c(=O)n4cccc(C)c4nc32)no1
0.45	-0.5	CCC(Sc1nc(=O)cc(N)n1-c1ccccc1)C(=O)Nc1cc(C)on1 (configuration not stated)
0.53	-0.91	CC1(C)Cc2ccccc2C(C(=O)c2ccccc2)=N1
0.9	-1.4	Cc1csc2c(N3CCN(C(=O)Nc4ccc(OC(F)(F)F)cc4)CC3)ncnc12
0.09	-3.6	CCc1nn(CC(=O)N2CCCCCC2)c(=O)c2cc3ccccc3n12
0.37	0.03	CCCc1nnc(NC(=O)CCC(=O)N2CCN(S(=O)(=O)c3ccc(OC)cc3)CC2)s1
0.03	-0.01	Cc1cnn(-c2ccc3nnc(-c4ccc(Cl)cc4)n3n2)c1
1.3	-0.7	CCCCc1cc(=O)oc2cc(OCC(=O)N[C@@H](Cc3ccccc3)C(=O)O)ccc12
0.34	-0.79	COCCNC(=O)CN1C(=O)COc2ccc(Cl)cc21
0.08	0.95	COc1cccc(F)c1C(=O)NC(=O)Nc1ccc2nc(C)oc2c1
1.1	0.69	COc1ccc(C2(O)CCN(CCCCOc3ccccc3)CC2)cc1
0.75	-0.88	COc1ccc(NC(=O)CSCC(=O)OCc2cccc(OC)c2OC)cc1
0.34	0.78	O=C(NCCCN1CCOCC1)c1ccc(NS(=O)(=O)c2ccccc2)cc1
0.53	-0.34	O=C(NCCc1ccccc1)C(=Cc1ccc(C(=O)O)cc1)C(=O)NCCc1ccccc1
0.06	1.6	O=C1CC(C2CCCO2)C(=O)N1c1ccccc1 (configuration not stated)
1.8	0.55	O=C1CCCN1c1cccc(Br)c1
0.47	0.81	CC(C)(C)OC(=O)[C@H](CCCCN)NC(=O)c1nc[nH]c1C(=O)NCCCCCN
1.1	1.1	CCCCCOC(=O)C1=C(C)NC(=O)NC1c1ccccc1 (configuration not stated)
1.4	-0.74	Cc1c(C(=O)Nc2ccccn2)sc2nc3n(c(=O)c12)CCC3
1.3	0.84	CC(=O)N1CCc2cc(S(=O)(=O)C(C)CC(=O)NCc3ccc(C)o3)ccc21 (configuration not stated)
0.03	1.6	CSC1=NC(C)N2C(SC)=NC(C)N12 (configuration not stated)
0.03	-0.28	O=C(O)C(NS(=O)(=O)c1ccc(F)cc1)c1ccccc1 (configuration not stated)
1.6	-0.72	CCc1nc(NCC2CCCN2CC)c2nnn(Cc3ccccc3F)c2n1 (configuration not stated)
0.04	2.8	CNC(=S)N(Cc1ccc(OC)cc1)C1CC(=O)N(c2ccc(Cl)cc2)C1=O (configuration not stated)
0.74	0.16	COc1ccc2c(c1OC)C(=O)N1N=C(c3ccccc3)CC21 (configuration not stated)
0.07	1.4	Oc1ccccc1Oc1ncc(Br)c(N2CCOCC2)n1
1.1	-0.15	CCS(=O)(=O)N1CCC(C(=O)Nc2cc(C)ccc2O)CC1
0.21	-0.43	CC(=O)c1sc(-c2cccc(Cl)c2)nc1C
1.1	0.11	CCc1nnc(NC(=O)CSc2nnc(-c3ccccc3OC)n2-c2ccccc2)s1
0.25	1.1	Cc1cccc(OCC(=O)NN2C(=O)C3C4C=CC(O4)C3C2=O)c1 (configuration not stated)
1.9	-0.73	O=C(CSCCO)Nc1cccc2ccccc12
0.92	1.4	CC(C)OC(=O)CC(=O)CSc1nc2c(cc1C#N)CCCC2
0.11	-0.55	NCCCNc1nc(N)c([N+](=O)[O-])c(NC2CCCCC2)n1
1.2	0.96	O=C(NNC(=O)c1ccccc1-n1cccc1)c1ccccc1
1.5	-3.3	N#Cc1c(NC(=O)c2ccc([N+](=O)[O-])o2)sc2c1CCC2
2.4	1.1	Cc1ccc2nc3c(cc(C(=O)NCCN4CCOCC4)c(=N)n3CCCN3CCOCC3)c(=O)n2c1
1.2	0.04	COc1ccc(Cl)cc1NC(=O)c1[nH]c(C)c(C(C)=O)c1C
1.3	-0.66	COc1cc(C(=O)Nc2ccc(-n3cnnn3)c(C)c2)cc(OC)c1OC
0.33	-0.02	S=C(NCc1cccnc1)Nc1cc(Cl)cc(Cl)c1
0.9	0.02	Cc1occc1C(=O)N/N=C/c1ccccn1
1.4	-1	COc1ccc(S(=O)(=O)N2CCCCCC2)cc1C(=O)N(C)Cc1cccs1
0.05	-1.6	CCCN(CCC)C(=O)c1ccccc1C(=O)N(CCC)CCC
1.3	0.28	O=C1CCC/C(=N\NC(=O)c2ccc(COc3cccc4cccnc34)cc2)C1

Remaining list, next part.
KCNQ2 pot	KCNQ2 pot baseline	molecule
0.07	0.86	COc1ccc(NC(=S)NCc2ccco2)cc1
1.7	-1.4	CNS(=O)(=O)c1cccc(C(=O)NCC2(N3CCOCC3)CCCCC2)c1
0.97	0.45	CCOC(=O)C(CC)Sc1ncnc2nc[nH]c12 (configuration not stated)
0.02	0.08	COc1ccc(N2CCN(C(=O)CCC(=O)c3cc(C)sc3C)CC2)cc1
0.29	1.4	Cc1nc2sccc2c(=O)n1N
1.1	-1.4	CN(CC(=O)NC1CCCCC1)S(=O)(=O)c1ccc(Cl)cc1
